A1 inh: blocks A1 activity | MEF A1-2A-BIM cells, caspase-Glo luminescence, 3 h; percent of clofoctol signal, DMSO as zero | caspase activation, % (test concentration not listed) | actives 0.51% (n = 21,000) | AID 2241;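 active = most replicate scores above 10, or exactly half above 10 with mean activity above 10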;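 note: effector caspase 3 and 7 activity cleaving a DEVD luciferin substrate; 50 nL library stock added to about 30 µL; numbers are from one replicate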
BJeLR viability: lowers viability of BJeLR cells; BJeLR fibroblasts viability, CellTiterGlo ATP luminescence, 48 h; HRASV12, hTERT and SV40 LT/ST transformed; viability loss activity score, % (no concentration beside the values); actives 0.64% (n = 30,000); AID 2275; in the data active = viability loss activity score above about 50%; about a fifth of its hits are not listed in these tables;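 note: higher score means fewer live cells and less ATP luminescence; stock transfer was 50 or 100 nL into about 30 µL; 0% = vehicle wells and 100% = a reference killing control; one replicate is shown; the record names a cut of 85%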
Starred values were filed as active, the others as inactive; nt = no result given. Not all compounds are listed; rates above refer to the full screens.

SMILES | A1 inh | BJeLR viability
C[C@@H]1CN([C@H](C)CO)C(=O)c2cc(NS(=O)(=O)c3ccccc3)ccc2O[C@H]1CN(C)S(=O)(=O)c1cn(C)cn1 | -0.3 | 1.5
Cc1noc(C)c1NC(=O)N(C)C[C@@H]1Oc2c(NC(=O)Nc3ccccc3)cccc2C(=O)N([C@@H](C)CO)C[C@H]1C | nt | 1.6
Nc1ccc(S(=O)(=O)NC(=O)c2ccccc2)cc1 | 0.1 | -1.9
C[C@@H]1CN([C@@H](C)CO)C(=O)c2cc(NC(=O)Nc3ccc(F)cc3)ccc2O[C@H]1CN(C)Cc1ccc(-c2ccccc2)cc1 | -0.6 | 16
COc1ccc(Cn2c(=O)[nH]c3cc(C(=O)NCc4ccccc4)ccc3c2=O)cc1 | nt | 5.0
CO/N=C(\C(=O)NC1C(=O)N2C(C(=O)OCOC(=O)C(C)(C)C)=C(/C=C\c3scnc3C)CSC12)c1csc(N)n1 (stereo not given) | -0.2 | -5.7
S=C(NC1CCCCC1)N(Cc1ccccc1)Cc1ccccc1 | -0.3 | -10
CCn1nc(C)c(N=Cc2ccc(N(C)C)c(Br)c2)c1C | 1.5 | 9.9
C=C1C(=O)O[C@@H]2/C=C(/C)[C@@H]3C/C=C(/C[C@@H](OC(=O)/C(=C/CO)CO)[C@@H]12)C[C@@](O)(C(C)C)C(=O)O3 | 0.9 | 5.6
CCN1CCCC1CNC(=O)c1cc(NC(C)=O)c(N(C)C)cc1OC (stereo not given) | 0.3 | -1.3
C[C@@H]1CN([C@@H](C)CO)C(=O)c2cc(NS(=O)(=O)c3cccs3)ccc2O[C@H]1CN(C)C(=O)Nc1ccc(F)cc1 | -0.1 | -2.6
O=C(CSc1nc2ccccc2o1)N1CCC(n2cccc2)CC1 | -0.1 | 6.0
COC(=O)C1=C(C)NC2=C(C(=O)CC(C)(C)C2)C1c1ccncc1 (stereo not given) | -0.2 | -2.4
Cn1c(=O)cc(Nc2ccccc2)c2c(=O)n(-c3ccccc3)c(=O)n(-c3ccccc3)c21 | 2.0 | 0.4
C[C@@H]1CN([C@@H](C)CO)C(=O)c2cccc(NS(=O)(=O)c3cn(C)cn3)c2O[C@H]1CN(C)Cc1ccc(Cl)c(Cl)c1 | nt | -5.7
Cc1noc(C)c1NC(=O)N(C)C[C@@H]1Oc2ccc(NC(=O)Cc3cn(C)c4ccccc34)cc2C(=O)N([C@H](C)CO)C[C@H]1C | -0.4 | 2.4
C[C@@H]1CN([C@@H](C)CO)C(=O)c2cccc(NC(=O)c3ccncc3)c2O[C@@H]1CN(C)C(=O)NC1CCCCC1 | nt | -3.1
O=C(NC1CC1)c1ccccc1SCc1ccc(F)cc1 | 0.7 | 1.5
O=C(COc1ccccc1)N1CCN(C(=O)COc2ccccc2)CC1 | -0.2 | 2.8
O=c1c(O[C@@H]2O[C@H](CO)[C@H](O)[C@H](O)[C@H]2O)c(-c2ccc(O)cc2)oc2cc(O)cc(O)c12 | -0.2 | -3.0
C[C@@H]1CN([C@@H](C)CO)C(=O)c2cc(NC(=O)NC3CCCCC3)ccc2O[C@@H]1CN(C)Cc1ccc(-c2ccccc2)cc1 | 0.8 | -0.6
Cc1noc(C)c1NC(=O)N(C)C[C@H]1Oc2ccc(NC(=O)C3CCCCC3)cc2C(=O)N([C@H](C)CO)C[C@@H]1C | -0.4 | -4.3
OCc1ccccc1O | 0.3 | -1.4
C[C@@H]1CN([C@H](C)CO)C(=O)c2cc(NC(=O)Cc3cn(C)c4ccccc34)ccc2O[C@H]1CN(C)Cc1ccc(C(F)(F)F)cc1 | 0.6 | 2.9
COc1ccc(S(=O)(=O)Nc2cccc3c2O[C@@H](CN(C)S(=O)(=O)c2cn(C)cn2)[C@H](C)CN([C@@H](C)CO)C3=O)cc1 | nt | -2.8

One compound at a time, from the list above:
`Cc1noc(C)c1NC(=O)N(C)C[C@@H]1Oc2c(NC(=O)Nc3ccccc3)cccc2C(=O)N([C@@H](C)CO)C[C@H]1C` is entered as A1 inh = nt; BJeLR viability = 1.6
`C[C@@H]1CN([C@@H](C)CO)C(=O)c2cccc(NC(=O)c3ccncc3)c2O[C@@H]1CN(C)C(=O)NC1CCCCC1` is entered as A1 inh = nt; BJeLR viability = -3.1
`S=C(NC1CCCCC1)N(Cc1ccccc1)Cc1ccccc1` is entered as A1 inh = -0.3; BJeLR viability = -10

Other structures.
SMILES | A1 inh | BJeLR viability
Cc1noc(C)c1NC(=O)N(C)C[C@@H]1Oc2c(NC(=O)Nc3cccc4ccccc34)cccc2C(=O)N([C@@H](C)CO)C[C@H]1C | nt | 0.8
Cc1cc(C)cc(OC(=O)CCN2C(=O)c3ccccc3C2=O)c1 | nt | -0.7
Cc1ccc(S(=O)(=O)N(C)C[C@@H]2Oc3ccc(NC(=O)Nc4ccccc4)cc3C(=O)N([C@@H](C)CO)C[C@H]2C)cc1 | -1.2 | 5.2
C[C@H]1CN([C@@H](C)CO)C(=O)c2cc(NC(=O)CCC(F)(F)F)ccc2O[C@@H]1CN(C)S(=O)(=O)c1cccs1 | 0.0 | 0.2
FC(F)(F)C1CCN(c2ncccc2NC(=S)Nc2ccc(Cl)cc2)CC1 | 0.3 | 0.2
C[C@@H]1CN([C@@H](C)CO)C(=O)c2cc(NS(C)(=O)=O)ccc2O[C@@H]1CN(C)Cc1ccc(Cl)c(Cl)c1 | -0.4 | 10
CC1(C)CC(=O)c2cnc(NCc3ccccc3)nc2C1 | 0.1 | -3.0
C[C@H](CO)N1C[C@H](C)[C@H](CN(C)C(=O)Nc2ccc(F)cc2)Oc2ccc(NS(C)(=O)=O)cc2C1=O | -0.3 | 1.2
CNC(=O)c1ccc(OC(C)=O)cc1 | -0.3 | -1.2
O=C(/C=C/c1ccccc1)CC(O)(c1ccccc1)C(F)(F)F (stereo not given) | 2.6 | nt
CCCc1cc(=O)[nH]c(SCc2nc3ccccc3[nH]2)n1 | -1.5 | 13
Cc1noc(C)c1S(=O)(=O)Nc1ccc2c(c1)C(=O)N([C@H](C)CO)C[C@H](C)[C@H](CN(C)C(=O)Nc1ccc(C(F)(F)F)cc1)O2 | 2.0 | -4.3
Cc1ccc(NC(=O)CSC2=NC3(CCCCC3)Nc3ccccc32)cc1 | nt | 1.0
Cc1[nH][nH]c(=O)c1C(c1ccncc1)C(C#N)C#N (stereo not given) | 0.4 | 1.8
CC1=CC(C)(C)N(C(=O)Nc2ccc(C)cc2)c2ccccc21 | nt | 3.3
COc1ccc(S(=O)(=O)N(C)C[C@H]2Oc3c(NC(=O)c4cnccn4)cccc3C(=O)N([C@@H](C)CO)C[C@@H]2C)cc1 | nt | -0.4
C[C@@H]1CN([C@@H](C)CO)C(=O)c2cccc(NC(=O)c3ccncc3)c2O[C@@H]1CN(C)Cc1ccc2c(c1)OCO2 | nt | -0.6
O=C(CC(O)(c1ccccc1)C(F)(F)F)c1ccccc1 (stereo not given) | 0.7 | -2.6
COc1ccc(NC(=O)N(C)C[C@@H]2Oc3ccc(NC(=O)NC(C)C)cc3C(=O)N([C@H](C)CO)C[C@H]2C)cc1 | 0.9 | -0.4
COc1ccc(S(=O)(=O)N(C)C[C@@H]2Oc3ccc(NC(=O)C4CCCCC4)cc3C(=O)N([C@H](C)CO)C[C@@H]2C)cc1 | -0.3 | 0.5
O=S(=O)(c1cccc2c(I)cccc12)N1CCCNCC1 | 0.5 | -1.7
COc1cc(-c2coc3cc(O[C@@H]4O[C@H](CO)[C@@H](O)[C@H](O)[C@H]4O)c(OC)c(O)c3c2=O)cc(O)c1OC | 1.1 | 4.8
C[C@@H]1CN([C@@H](C)CO)C(=O)c2cc(NS(C)(=O)=O)ccc2O[C@@H]1CN(C)Cc1ccc(C(=O)O)cc1 | 1.1 | 7.2
CC(Oc1ccccc1)C(=O)N1CCN=C1SCc1ccccc1 (stereo not given) | nt | 4.4
O=C(Oc1ccccc1)Oc1ccc2oc(=O)sc2c1 | -0.9 | 1.9
Going on with the list.
SMILES | A1 inh | BJeLR viability
COC(=O)Nc1ccc(S(=O)(=O)N2CCCc3ccccc32)cc1 | 1.9 | 32
CCOC(=O)C1(c2csc(N)n2)COC(=O)C1 (stereo not given) | -0.5 | -4.2
Cc1cc(C(=O)Nc2cccc3c2O[C@@H](CN(C)C(=O)Nc2c(C)noc2C)[C@@H](C)CN([C@@H](C)CO)C3=O)n(C)n1 | nt | -0.9
CCCc1cc(=O)[nH]c(SCC(=O)NCCc2ccccc2)n1 | 0.5 | -1.1
COC(=O)c1ccc2c(c1)N(CC#N)C(=O)CS2 | -0.1 | -0.8
C[C@@H]1CN([C@@H](C)CO)C(=O)c2cccc(NS(=O)(=O)c3cccs3)c2O[C@@H]1CN(C)Cc1ccccc1 | nt | -1.2
C[C@@H]1CN([C@@H](C)CO)C(=O)c2cccc(N(C)C)c2O[C@H]1CN(C)S(=O)(=O)c1cn(C)cn1 | nt | -3.0
C[C@H](CO)N1C[C@H](C)[C@@H](CN(C)Cc2ccc(Cl)c(Cl)c2)Oc2c(NC(=O)c3cnccn3)cccc2C1=O | nt | 3.8
C[C@H](CO)N1C[C@H](C)[C@H](CN(C)Cc2ccc(Oc3ccccc3)cc2)Oc2ccc(NC(=O)Cn3cnnn3)cc2C1=O | 0.9 | -0.1
C[C@@H]1CN([C@@H](C)CO)C(=O)c2cc(NS(=O)(=O)c3ccccc3)ccc2O[C@H]1CN(C)C(=O)NC1CCCCC1 | 0.4 | -3.2
C[C@@H]1CN([C@H](C)CO)C(=O)c2cc(NC(=O)CCN3CCOCC3)ccc2O[C@@H]1CN(C)Cc1ccc(C(=O)O)cc1 | -0.4 | -4.4
COc1ccc(NC(=O)Nc2ccc3c(c2)C(=O)N([C@@H](C)CO)C[C@@H](C)[C@@H](CN(C)S(=O)(=O)c2ccc(C)cc2)O3)cc1 | -0.3 | 2.3
C[C@H]1CN([C@@H](C)CO)C(=O)c2cc(NC(=O)C3CCCCC3)ccc2O[C@H]1CN(C)Cc1ccc(Cl)c(Cl)c1 | 0.8 | -2.7
COc1ccc(CNC(=O)CN2N=C(c3ccc(Cl)cc3)CCC2=O)c(OC)c1 | -0.6 | -0.1
Cc1cc(C)cc(N2C(=O)CSC2c2cccs2)c1 (stereo not given) | 0.5 | 2.3
O=C(O)CCn1c(=O)n(CCC(=O)O)c2c(Cl)cc(Cl)cc21 | 0.8 | -1.8
CNC[C@H]1Oc2c(NC(=O)Nc3ccc(OC)cc3)cccc2C(=O)N([C@H](C)CO)C[C@@H]1C | nt | 3.5
C[C@@H]1CN([C@@H](C)CO)C(=O)c2cc(NS(=O)(=O)c3cccs3)ccc2O[C@@H]1CN(C)Cc1ccc(C(=O)O)cc1 | 0.7 | -0.1
C[C@@H]1CN([C@H](C)CO)C(=O)c2cccc(NC(=O)Nc3ccc4c(c3)OCO4)c2O[C@@H]1CN(C)C(=O)NC1CCCCC1 | nt | -1.4
COc1ccc(NC(=O)N(C)C[C@@H]2Oc3c(NS(C)(=O)=O)cccc3C(=O)N([C@@H](C)CO)C[C@H]2C)cc1 | nt | -6.1
CC1=C(C(=O)N(C)C2CCCCC2)C2(CCC(C)CC2)OC1=O (stereo not given) | nt | 4.9
CCOC(=O)c1c(/N=C/c2ccc(N(C)C)cc2)sc(C)c1C | -0.4 | 2.3
C[C@H](CO)N1C[C@H](C)[C@H](CN(C)Cc2ccc(C(=O)O)cc2)Oc2ccc(NC(=O)Cc3cn(C)c4ccccc34)cc2C1=O | 0.7 | -1.0
O=C(Oc1ccc2ccccc2c1C1SCCS1)c1cccs1 | 0.2 | -4.5
COc1ccc(CN(C)C[C@H]2Oc3ccc(NS(=O)(=O)c4ccc(C)cc4)cc3C(=O)N([C@@H](C)CO)C[C@H]2C)cc1 | 0.5 | -1.3
The results go on:
SMILES | A1 inh | BJeLR viability
C[C@@H]1CN([C@H](C)CO)C(=O)c2cc(N(C)C)ccc2O[C@H]1CN(C)Cc1ccc(Cl)c(Cl)c1 | -0.7 | 1.6
C[C@@H]1CN([C@@H](C)CO)C(=O)c2cccc(NC(=O)c3cnccn3)c2O[C@@H]1CN(C)Cc1ccc(Oc2ccccc2)cc1 | nt | -4.0
COc1cc(SC)ccc1C(=O)NCCCn1ccnc1 | 1.1 | 6.9
C[C@@H]1CN([C@@H](C)CO)C(=O)c2cccc(NC(=O)Nc3ccc4c(c3)OCO4)c2O[C@H]1CN(C)Cc1ccncc1 | nt | 2.8
C[C@H]1CN([C@@H](C)CO)C(=O)c2cccc(NC(=O)Nc3ccc4c(c3)OCO4)c2O[C@H]1CN(C)Cc1ccc(Oc2ccccc2)cc1 | nt | -7.1
CCc1cc2c(=O)oc(-c3ccc(Br)cc3)nc2s1 | -0.2 | -2.0
Cc1cc(C(=O)Nc2cccc3c2O[C@@H](CN(C)Cc2ccc(Oc4ccccc4)cc2)[C@@H](C)CN([C@@H](C)CO)C3=O)n(C)n1 | nt | -0.8
CCc1ccccc1NC(=O)C(CC)n1nc(C)n2c(cc3cc(C)ccc32)c1=O (stereo not given) | 0.0 | -5.8
CC1CCCC(NC(=O)C2CCC(Cn3c(=O)[nH]c4ccccc4c3=O)CC2)C1C (stereo not given) | 0.8 | 7.5
CSC1=NCCN1C(=O)Cc1cccs1 | nt | -6.2

A stretch of the results above, as a working copy:
SMILES | A1 inh | BJeLR viability
Cc1cc(C(=O)Nc2cccc3c2O[C@@H](CN(C)Cc2ccc(Oc4ccccc4)cc2)[C@@H](C)CN([C@@H](C)CO)C3=O)n(C)n1 | nt | -0.8
CCc1ccccc1NC(=O)C(CC)n1nc(C)n2c(cc3cc(C)ccc32)c1=O (stereo not given) | 0.0 | -5.8
CC1CCCC(NC(=O)C2CCC(Cn3c(=O)[nH]c4ccccc4c3=O)CC2)C1C (stereo not given) | 0.8 | 7.5
CSC1=NCCN1C(=O)Cc1cccs1 | nt | -6.2

Bioassay records (PubChem)
